FGF22 binding – binders of human FGF22 protein, primary screen, FGF22 synaptogenesis inhibitor project, biophysical, thermal shift, single point. calls only at 9.99 µM. actives 1.5% (n = 340,000). AID 651658, 2012. recombinant FGF22 thermal shift, SYPRO orange fluorescence; percent of sucrose octasulfate shift, DMSO zero. Fibroblast growth factor 22 (Homo sapiens), Q9HCT0;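 active means melting point raised past a set limit in the mean and every replicate; three in four hits are not shown here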
rRNA inh HTS – reduced GFP signal of wild-type E. coli, primary screen, bacterial rRNA inhibitor project, GFP/RFP fluorescence, OD600, single point | E. coli WT GFP vs humanized-ribosome RFP mutants, 24 h; active compounds read low; DMSO median 0, no signal -100 | GFP signal change (wild-type ribosome), % (concentration not given with the values) | actives 1.6% (n = 350,000) | AID 720706, 2013;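 active means significant combined selectivity score with lowered wild-type GFP, culture density cut under 30%, mutant RFP and density less affected; inactive means any of these conditions unmet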; further: one replicate is shown; some compounds called inactive have numbers as strong as hits
UCH37 DUB inh – inhibitors of human UCH37 deubiquitinase, primary screen, biochemical, Ub-AMC cleavage, fluorescence | inhibition, % (concentration not given with the values) | purified proteasome/UCH37 | Ubiquitin carboxyl-terminal hydrolase isozyme L5 (Homo sapiens), Q9Y5K5 | AID 588478, 2011 | actives 0.33% (n = 330,000);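 active means mean of two replicates above 20%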;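 further: 0% = compound-free wells with enzyme and 100% = wells lacking proteasome; stock transfer was 100 nL into about 20 µL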
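System: Proteasome-associated human UCH37 deubiquitinase; Input: 0.15 nM proteasome in added enzyme buffer; Also added: Ub-AMC substrate from 1 µM stock; Incubation: 30 min compound-proteasome preincubation then 25 min substrate reaction, room temperature; Detection: fluorescence, ex 355 nm, em 460 nm; Read-out: % inhibition of Ub-AMC cleavage fluorescence; Benchmarks: no-proteasome and no-compound wells.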
HNF4A DNA FP – change in binding of human HNF4A to DNA, primary screen, biochemical, fluorescence polarization, FITC-DNA; Hepatocyte nuclear factor 4-alpha (Homo sapiens), P41235; 1 h; activity change, % at 10 µM; actives 0.3% (n = 360,000); in the data active means activity change above about 30%, passing the limit was not always enough;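 further: controls were the assay level and a saturating level of protein; the project sought stronger binding though the title names inhibitors; some compounds called inactive have numbers as strong as hits; positive values seem to mean higher polarization but the record does not say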
Target sequence (P41235 whole entry, looked up): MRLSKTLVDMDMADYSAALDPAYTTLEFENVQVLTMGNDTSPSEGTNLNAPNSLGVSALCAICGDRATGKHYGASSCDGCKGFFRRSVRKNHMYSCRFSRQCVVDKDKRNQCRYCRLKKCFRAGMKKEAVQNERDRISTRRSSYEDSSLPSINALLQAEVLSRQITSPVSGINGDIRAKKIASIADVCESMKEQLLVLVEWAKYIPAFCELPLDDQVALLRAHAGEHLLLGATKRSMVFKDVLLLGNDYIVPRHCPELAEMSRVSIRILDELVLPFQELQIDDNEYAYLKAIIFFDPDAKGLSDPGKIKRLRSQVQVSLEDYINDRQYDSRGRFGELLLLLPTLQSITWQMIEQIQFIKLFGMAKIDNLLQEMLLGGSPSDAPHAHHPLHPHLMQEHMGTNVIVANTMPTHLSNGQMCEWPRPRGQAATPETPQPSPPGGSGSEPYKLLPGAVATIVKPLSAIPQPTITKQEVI
Beta2AR agonist – beta2AR agonists driving receptor internalization, primary screen, cell-based, FAP fluorogen, flow cytometry; response, % (no concentration beside the values); Am2.2-beta2AR cells; reference of the scale not given here; Beta-2 adrenergic receptor (Homo sapiens), P07550; actives 0.43% (n = 340,000);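 active means response above a set limit, near 3 SD of response in nonfluorescent compounds, cut at about 42% in these data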;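 further: stock transfer was 100 nL into about 11 µL; a reference agonist was the positive control; negative values mostly stem from fluorescent compounds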
Target sequence (P07550 whole entry, looked up): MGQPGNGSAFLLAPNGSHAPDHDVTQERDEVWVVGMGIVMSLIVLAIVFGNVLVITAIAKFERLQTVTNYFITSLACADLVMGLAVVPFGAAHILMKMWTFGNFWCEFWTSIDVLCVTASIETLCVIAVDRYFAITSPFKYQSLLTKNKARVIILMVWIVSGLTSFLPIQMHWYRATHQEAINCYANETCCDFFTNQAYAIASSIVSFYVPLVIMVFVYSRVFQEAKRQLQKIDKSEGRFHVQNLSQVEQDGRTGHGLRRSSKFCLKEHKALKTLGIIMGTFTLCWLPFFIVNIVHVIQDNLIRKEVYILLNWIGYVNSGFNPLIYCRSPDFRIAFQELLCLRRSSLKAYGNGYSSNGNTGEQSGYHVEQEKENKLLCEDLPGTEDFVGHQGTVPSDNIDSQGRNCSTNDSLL
ALR inh – inhibitors of human ALR sulfhydryl oxidase, primary screen, biochemical, H2O2 detection, HRP-luminol luminescence, single point; FAD-linked sulfhydryl oxidase ALR (Homo sapiens), P55789; purified ALR, DTT oxidation; inhibition, % (no concentration beside the values); actives 3.8% (n = 290,000);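 active means mean and each replicate at 75% or more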;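 further: stock transfer was 7.5 nL into about 7.5 µL; 0% = neutral wells and 100% = wells with inactivated enzyme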
Target sequence (P55789 whole entry, looked up): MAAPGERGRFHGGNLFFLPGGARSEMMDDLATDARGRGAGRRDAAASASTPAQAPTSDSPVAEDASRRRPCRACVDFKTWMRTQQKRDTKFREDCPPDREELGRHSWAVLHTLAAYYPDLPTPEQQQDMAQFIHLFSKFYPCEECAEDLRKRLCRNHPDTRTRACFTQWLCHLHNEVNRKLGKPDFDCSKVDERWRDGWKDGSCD
E coli growth – E. coli growth inhibition, primary screen, OD600. Escherichia coli growth, 23 h; active compounds read low. OD600 absorbance (no concentration beside the values). actives 0.21% (n = 330,000);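 active means OD600 absorbance below the run mean of sample wells minus 3.6 SD, in any replicate, cut at about 0.56 in these data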;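 further: stock transfer was 300 nL into about 60 µL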
rRNA inh HTS OD600 – further read-out of rRNA inh HTS, marked with its call; OD600 change, %; measured here: OD600 growth;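 optical density of the mix in the first replicate; 0 = DMSO median and -100 = no signal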
rRNA inh HTS RFP – also measured in rRNA inh HTS; calls as there; RFP signal change, %; measured here: RFP humanized mutant strains;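 first replicate; 0 = DMSO median and -100 = no signal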
The depositor's hits bear a star; i = inactive; nt = no result given; & = joins results of further samples. Not all compounds are listed. The share of hits here may be higher or lower than overall.

SMILES	FGF22 binding	rRNA inh HTS	rRNA inh HTS OD600	rRNA inh HTS RFP	UCH37 DUB inh	HNF4A DNA FP	Beta2AR agonist	ALR inh	E coli growth
O=C(N/N=C1\CC(c2ccccc2)Oc2ccccc21)c1ccc(O)cc1 (stereo unspecified)	i	-15	-14	6.4	nt	-0.2	-15	-5	nt
O=C(Nc1ccc(Cl)cc1)OCc1cn(-c2ccccc2)nn1	i	-8	-3	-0.4	1.4	2.4	-5	5	0.68
Cc1ccc2c(CC(=O)OC(C)C(=O)Nc3ncc(Cl)cc3Cl)coc2c1 (stereo unspecified)	i	-20	-39	-18	-1.1	-3.3	-6	nt	0.66
O=c1c(Br)c(Br)cnn1-c1ccccc1	i	-9	3	4.9	5.6	-0.1	39	nt	0.66
CCC(=O)Nc1ccc2c(c1)OC[C@@H](C)N(C(=O)c1ccccn1)C[C@@H](C)[C@@H](OC)CN(C)C2=O	i	1&2&13	7&4&12	-1.8&-0.4&2.3	nt	-0.3	nt	nt	nt
CCOC(=O)c1[nH]c2ccc(Cl)cc2c1NC(=O)/C=C/c1ccc2c(c1)OCO2	i	18	5	-1.0	-11	-4.0	-5	1	0.69
CC(C)(C)N(Cc1ccccc1)C(=O)COC(=O)CNS(=O)(=O)c1ccc2ccccc2c1	i	-13	-18	2.2	-1.4	-2.2	1	-3	0.72
O=C(O)c1cc(-c2ccc3ccccc3c2)nc2ccc(F)cc12	i	-40	-42	1.2	-86	-3.8	-36	3	0.69
Fc1ccc(COc2ccc(-c3nnco3)cc2)cc1	i	6	1	-3.8	1.3	-6.9	-5	-5	0.7
O=C(N/N=C/c1cc(Cl)cc([N+](=O)[O-])c1O)c1ccccc1NS(=O)(=O)c1cccs1	i	5	-3	-3.1	nt	9.4	15	10	nt
O=C(CSc1nnc(-c2ccncc2)o1)c1ccc2c(c1)OCCO2	i	10	12	1.5	0.0	0.4	5	-1	0.66
Cn1c(SCC(=O)c2ccccc2)ncc(C(=O)Nc2ccc(F)cc2)c1=O	i	18	18	3.3	-4.7	-2.0	0	10	0.68
CCOc1ccc(S(=O)(=O)N2CCOCC2)cc1NC(=O)C1=COCCO1	i	8	5	3.2	0.6	-0.9	-5	nt	0.71
COCCN1C(=O)N(c2cccc(OC)c2)C(=O)C1CC(=O)Nc1ccc(Cl)cc1 (stereo unspecified)	i	-5	2	-4.5	2.8	-0.6	6	-4	0.65
COc1ccc(CN(C)CC(=O)NC(=O)NCc2ccccc2)c(OC)c1	nt	nt	nt	nt	0.6	-0.3	-2	nt	0.68
COCCN(C(=O)CSc1nnc(-c2ccc(F)cc2)n1N)c1c(N)n(CC(C)C)c(=O)[nH]c1=O	i	-2	2	3.4	nt	3.1	nt	nt	nt
O=C(O)C1CC=CCC1C(=O)Nc1cccc(C(=O)N2CCCCC2)c1 (stereo unspecified)	nt	nt	nt	nt	1.4	-0.5	-2	-5	0.71
CC(C)C(=O)Nc1ncc2c(n1)CC(c1cccs1)CC2=O (stereo unspecified)	nt	nt	nt	nt	-0.8	0.6	-6	-8	0.61
CC1CCN(S(=O)(=O)c2ccc3c(c2)N(CC(=O)NCCCN(Cc2ccccc2)C(C)C)C(=O)CO3)CC1	i	4	-4	0.0	1.2	0.7	2	-5	0.63
O=C(NCc1cnn(-c2ccccc2)c1)C1CCC(=O)N(C2CC2)C1 (stereo unspecified)	i	14	10	1.6	-1.1	-0.3	-6	3	0.7
COc1cccc(-c2nn(-c3ccccc3)cc2C(=O)OCC(=O)Nc2ncc(Cl)cc2Cl)c1	nt	nt	nt	nt	5.9	-2.0	-5	0	0.73
COc1ccc(C(=O)Cn2c(N3CCCCC3)nc3c2c(=O)n(C)c(=O)n3C)cc1OC	i	7	1	-3.5	0.3	1.1	-9	nt	0.68
COc1ccc(NC(=O)C2=C(C)Nc3ncnn3C2c2ccccc2C(F)(F)F)c(OC)c1 (stereo unspecified)	nt	nt	nt	nt	-55	12	2	-47	0.76
Nc1nc(=O)n(C2CCCCO2)cc1Br (stereo unspecified)	i	12	21	1.1	nt	-3.0	-5	nt	nt
O=C(NN=Cc1ccccc1)NN=Cc1ccccc1	i	-6	4	-0.7	-0.6	1.2	11	nt	0.68
SMILES	FGF22 binding	rRNA inh HTS	rRNA inh HTS OD600	rRNA inh HTS RFP	UCH37 DUB inh	HNF4A DNA FP	Beta2AR agonist	ALR inh	E coli growth
Cc1c(Cl)c(=O)oc2cc(OC(C)C)ccc12	i	-12	-15	1.0	nt	4.7	-1	0	nt
Cc1sc2nc3c4ccccc4c(NCc4ccco4)nn3c(=O)c2c1C	nt	nt	nt	nt	-30	-0.9	-8	98*	0.81
CCCCN(C(=O)CCCc1nc2ccccc2c(=O)[nH]1)c1c(N)n(CCCC)c(=O)[nH]c1=O	i	6	15	0.9	0.4	-3.5	3	-2	0.68
CCOc1ccc(C(=O)Nc2sc3c(c2C(=O)OC)CC(C)(C)NC3(C)C)cc1	i	6	-2	2.1	-218	-0.6	2	nt	0.71
CCN(CC)S(=O)(=O)c1ccc2[nH]cc(C(=O)NCCCN3CCCCC3C)c(=O)c2c1 (stereo unspecified)	nt	nt	nt	nt	-13	2.1	-3	-3	0.69
CCC(=O)c1ccc(OCC(O)Cn2cnc3ccccc32)cc1 (stereo unspecified)	nt	nt	nt	nt	-1.0	-1.7	-7	-8	0.77
Cc1oc(C(C)(C)C)c(CN2CCOCC2)c1C(=O)O	i	10	1	1.2	-0.1	11	-2	2	0.7
O=C1NC(c2cccc([N+](=O)[O-])c2)Oc2ccccc21 (stereo unspecified)	i	16	14	1.1	1.7	1.2	5	0	0.67
Cc1cc(C(=O)COC(=O)CCc2nc3ccccc3s2)c(C)n1C	nt	nt	nt	nt	2.1	-1.7	5	-6	0.62
CCn1c(=O)c(C(=O)NCCc2ccc(OC)c(OC)c2)c(O)c2ccccc21	i	-9	-9	9.3	0.1	3.3	28	-4	0.66
O=C(c1ccc(Oc2ccc(C(F)(F)F)cn2)cc1)N1CCN(c2ccccc2)CC1	nt	nt	nt	nt	2.6	-4.0	2	3	0.7
CCC(C)(C)NC(=O)C(c1ccccn1)N(C(=O)c1csnn1)c1ccc(C)c(C)c1 (stereo unspecified)	i	16	6	2.0	-0.3	2.5	7	-1	0.63
COc1ccc(NC(=O)c2ccco2)cc1NC(=O)c1ccco1	nt	nt	nt	nt	1.3	1.7	-14	-2	0.67
O=C1CSc2nc3ccccc3n21	nt	nt	nt	nt	0.5	4.6	-2	nt	0.73
Nc1nc(-c2ccccc2)c(CCCNc2ccccc2)c(=O)[nH]1	nt	-31	-52	7.7	-0.2	0.7	-17	nt	0.67
Cc1ccc(C(=O)CN2C(=O)NC3(CCc4ccccc43)C2=O)s1 (stereo unspecified)	i	-1	-4	0.3	3.7	4.8	-2	-24	0.69
COc1cc(NC(=O)c2ccccc2NS(=O)(=O)c2ccc(Cl)s2)cc(OC)c1	nt	-51	-78	-21	0.0	-2.3	13	0	0.63
COc1cc(CC2C(=O)Nc3ccccc32)cc(C)c1O (stereo unspecified)	i	5	17	1.1	1.8	-1.2	-1	nt	0.69
COc1cccc(-c2cc(C(=O)N3CCN(c4ccccc4OC)CC3)no2)c1	i	-11	-21	5.9	6.7	0.1	-3	-2	0.66
O=C(NCc1ccncc1)C(=O)C1C(=O)Nc2ccccc21 (stereo unspecified)	i	7	1	-1.5	6.6	-4.7	4	73	0.67
COc1ccc(/C(N)=N/OC(=O)c2ccc3c(c2)OCO3)cc1OC	i	11	15	-3.5	1.4	-1.7	20	-5	0.66
O=C(NCc1cccnc1)c1cc(C2CCCN(C(=O)c3ccccn3)C2)on1 (stereo unspecified)	i	9	6	-0.3	nt	-2.5	nt	nt	nt
Cc1cccc(C(=O)O/N=C(\N)CS(=O)(=O)c2ccccc2)c1	i	0	7	-1.8	4.8	1.8	-1	-1	0.73
CCCCCCNc1nc(-c2ccc(OC)cc2)c(CCC(=O)O)s1	i	nt	nt	nt	-0.5	0.6	5	-9	0.7
C/C(CCc1ccc2c(c1)OCO2)=N\N=C1\NC(=O)CC(C(=O)Nc2ccc(Cl)cc2)S1 (stereo unspecified)	i	-31	-13	28	nt	3.4	-10	-4	nt
SMILES	FGF22 binding	rRNA inh HTS	rRNA inh HTS OD600	rRNA inh HTS RFP	UCH37 DUB inh	HNF4A DNA FP	Beta2AR agonist	ALR inh	E coli growth
Nc1ccccc1SCCS(=O)(=O)c1ccc(Cl)cc1	i	-8	3	3.4	1.5	-0.4	1	-6	0.65
CC1(CCc2ccc3c(c2)OCO3)NCCc2c1[nH]c1ccccc21 (stereo unspecified)	i	12	13	3.5	6.9	6.2	6	-39	0.59
O=C(CN1CCOCC1)N1c2ccccc2Sc2ccccc21	i	2	2	-0.9	5.4	3.4	7	4	0.67
COc1ccccc1NC(=S)N(CCN1CCCCCC1)Cc1cccs1	i	2	-6	0.8	2.5	-1.2	6	-5	0.65
COc1cc(S(=O)(=O)N(Cc2ccc(C)cc2)C2CCCCC2)ccc1-n1cnnn1	i	-14	-8	-1.5	5.8	-0.5	5	0	0.68
CCCCCC(=O)NN1C(=S)N(c2ccc(OC)cc2)C(=O)C1CC(=O)Nc1ccccc1 (stereo unspecified)	i	nt	nt	nt	1.2	2.5	2	2	0.61
COc1ccc2[nH]c3nc(SCc4nnc(-c5ccc(C)cc5)o4)nnc3c2c1	nt	nt	nt	nt	7.6	-0.2	-2	1	0.7
COCCN1C(=O)N[C@@H](CCc2ccccc2)[C@H](C(C)=O)[C@H]1C	i	8	14	-8.1	0.3	2.3	3	0	nt
CN(CC(=O)Nc1ccccc1Br)CC(=O)Nc1ccccc1C(F)(F)F	i	7	12	3.4	2.5	2.3	4	-23	0.67
CCCS(=O)(=O)N1CCCC(C(=O)NCCN(C)Cc2ccccc2)C1 (stereo unspecified)	nt	nt	nt	nt	1.7	5.5	1	-30	0.73
CN(C)S(=O)(=O)c1ccc(N2CCCC2)c(C(=O)NNC(=O)c2ccccc2)c1	i	-1	7	2.7	0.6	-5.3	-5	nt	0.69
CC(Sc1nnc(-c2ccc(C(C)(C)C)cc2)n1C)C(N)=O (stereo unspecified)	nt	nt	nt	nt	-2.3	0.5	1	-1	0.7

Entries of single compounds from above. Values in the order: FGF22 binding | rRNA inh HTS | rRNA inh HTS OD600 | rRNA inh HTS RFP | UCH37 DUB inh | HNF4A DNA FP | Beta2AR agonist | ALR inh | E coli growth
Results for `COc1ccc(NC(=O)c2ccco2)cc1NC(=O)c1ccco1` → nt | nt | nt | nt | 1.3 | 1.7 | -14 | -2 | 0.67
Results for `CCCCN(C(=O)CCCc1nc2ccccc2c(=O)[nH]1)c1c(N)n(CCCC)c(=O)[nH]c1=O` → i | 6 | 15 | 0.9 | 0.4 | -3.5 | 3 | -2 | 0.68
Results for `O=C(O)c1cc(-c2ccc3ccccc3c2)nc2ccc(F)cc12` → i | -40 | -42 | 1.2 | -86 | -3.8 | -36 | 3 | 0.69
Results for `CCC(=O)Nc1ccc2c(c1)OC[C@@H](C)N(C(=O)c1ccccn1)C[C@@H](C)[C@@H](OC)CN(C)C2=O` → i | 1&2&13 | 7&4&12 | -1.8&-0.4&2.3 | nt | -0.3 | nt | nt | nt
Results for `CCOc1ccc(S(=O)(=O)N2CCOCC2)cc1NC(=O)C1=COCCO1` → i | 8 | 5 | 3.2 | 0.6 | -0.9 | -5 | nt | 0.71
